Arbovirus anti = arbovirus infection inhibition; arbovirus infection cell-based antiviral screen; inhibition, % at 10 µM; 200,000 compounds, 0.37% hits;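 active = inhibition from about 30%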;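 also: bluetongue infection of BSR cells; cell survival read as ATP light after 72 h; 0% = infected wells without compound and 100% = uninfected wells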
Mtb bLac sens = beta-lactam sensitization of Mtb H37Rv; inhibition, % at 25 µM; M. tuberculosis H37Rv growth with meropenem, percent inhibition; hits of this screen are not shown here; 330,000 compounds, 0.27% hits;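 active = about 74% or more and at least 40 points above the plate without the antibiotic, then above 30% in a dose series; inconclusive = first-round hits that could not be retested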;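 also: growth measured after seven days incubation then overnight dye step; 0% = bacteria only wells and 100% = bacteria with antibiotic; twin plates without the antibiotic show which effects depend on it; some results filed as inactive read as strong as hits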
YopH inh = inhibitors of Yersinia enterocolitica YopH tyrosine phosphatase | fluorescence Ex485/Em525 | inhibition, %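 (about 10 µM by stock and volumes)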 | 140,000 compounds, 0.16% hits | AID 898;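 active = inhibition of 50% or more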;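 also: controls were vehicle for no effect and minimum signal wells for full effect; inactives centre near -20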
Mtb growth = M. tuberculosis H37Rv growth inhibitors, H37Rv strain (AID 1626); M. tuberculosis H37Rv growth inhibition; higher % means a stronger effect; inhibition, % at 10 µM, or IC50 in µM where a hit was titrated; 220,000 compounds, 0.95% hits;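 active = confirmed in a dose series; inconclusive = inhibition above 80% but not taken into the dose series; inactive = below 80% or under 30% at every dose of the series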;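 also: bacteria incubated seven days before Alamar blue readout; 0% = bacteria only wells and 100% = bacteria with antibiotic wells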
RecA intein inh = blocks M. tuberculosis RecA intein splicing | 290,000 compounds, 0.75% hits | inhibition, %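 (about 9 µM by stock and volumes)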 | P9WHJ3 | cell-free RecA intein splicing, fluorescence; in the data active = inhibition above about 30%; inconclusive = no clear call, values can overlap the other calls;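 also: 0% = vehicle wells and 100% = reference inhibitor control wells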
Target sequence (P9WHJ3 whole entry, looked up): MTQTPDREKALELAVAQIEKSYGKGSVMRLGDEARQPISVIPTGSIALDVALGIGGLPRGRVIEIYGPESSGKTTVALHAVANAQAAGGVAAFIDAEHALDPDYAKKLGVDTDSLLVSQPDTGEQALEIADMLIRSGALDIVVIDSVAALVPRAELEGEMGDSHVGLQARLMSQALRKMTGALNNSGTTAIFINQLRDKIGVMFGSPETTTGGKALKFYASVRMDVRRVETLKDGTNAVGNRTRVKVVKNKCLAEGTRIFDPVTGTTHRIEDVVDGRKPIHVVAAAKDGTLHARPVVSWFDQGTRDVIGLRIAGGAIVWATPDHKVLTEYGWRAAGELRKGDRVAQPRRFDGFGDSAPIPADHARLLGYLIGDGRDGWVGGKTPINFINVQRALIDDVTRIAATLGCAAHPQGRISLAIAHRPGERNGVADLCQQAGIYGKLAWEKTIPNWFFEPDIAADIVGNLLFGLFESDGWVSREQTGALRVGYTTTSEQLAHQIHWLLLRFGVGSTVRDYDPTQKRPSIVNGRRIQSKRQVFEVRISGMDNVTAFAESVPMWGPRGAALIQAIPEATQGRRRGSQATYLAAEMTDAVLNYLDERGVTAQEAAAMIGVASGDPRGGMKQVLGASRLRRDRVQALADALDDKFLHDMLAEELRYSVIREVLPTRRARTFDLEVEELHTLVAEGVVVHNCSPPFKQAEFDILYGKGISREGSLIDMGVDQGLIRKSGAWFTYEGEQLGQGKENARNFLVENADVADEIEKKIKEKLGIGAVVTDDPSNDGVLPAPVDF
Arbovirus anti repeat = second read-out of Arbovirus anti, no call of its own (marks repeat the call); inhibition, %; measured here: 10K subset replicate screen; many hits read low in the repeat;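 first of two repeat runs on a subset; 0% = infected and 100% = uninfected wells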
* hit, by the source's call; ? = inconclusive; . = no result given.

Start of the listing, in advance, 2 compounds:
SMILES | Arbovirus anti | Mtb bLac sens | YopH inh | Mtb growth | RecA intein inh | others
CNC(=O)c1csc(-c2cccs2)n1 | 18 | -5 | . | -5% | -3.2
Cc1cc(NC(=O)CSc2nnc(C3CC3)n2Cc2ccccc2)no1 | 5 | -12 | -12 | 0% | -2.2

The listing, previewed entries included:
SMILES | Arbovirus anti | Mtb bLac sens | YopH inh | Mtb growth | RecA intein inh | others
CNC(=O)c1csc(-c2cccs2)n1 | 18 | -5 | . | -5% | -3.2
Cc1cc(NC(=O)CSc2nnc(C3CC3)n2Cc2ccccc2)no1 | 5 | -12 | -12 | 0% | -2.2
CNC(=S)NNC(=O)c1sc2cc(C(F)(F)F)cnc2c1-c1ccccn1 | 13 | -6 | . | -2% | 2.6
COc1ccc(Cl)cc1NC(=S)N(CCN1CCOCC1)C1CCN(C(C)=O)CC1 | -1 | 3 | . | -1% | 4.2
COc1ccc(NC(=O)CSc2ncn(-c3ccccc3)n2)cc1Cl | 6 | 98 | 1 | >100µM* | -3.7
CCOP(=O)(OCC)C(NC(=O)c1ccc(C)cc1)=C(Cl)Cl | -2 | 5 | -30 | 2% | -1.0
CCOC(=O)CNC(=O)N1CCCC(CNS(=O)(=O)Cc2ccccc2)C1 (stereo not drawn) | 10 | 0 | . | -6% | -0.5
CCOC(=O)c1c(NC(=O)COC)sc2c1CCCC2 | -4 | 5 | -5 | -10% | -0.9
COC(=O)Nc1c(-c2ccccc2)nc2ccccn12 | 6 | ? | 2 | 3% | -3.6
Clc1ccc(N=NN2CCOCC2)cc1 | . | 52 | . | 30% | .
O=C(O)CCC(=O)Nc1cccc(C(=O)c2ccccc2)c1 | . | -9 | . | -5% | 0.8
CCOc1ccc(-c2nc(CSc3nnc(N)s3)cs2)cc1OC | -2 | 20 | 1 | 6% | 1.1
CC(C)COc1ccc(CNC(=S)N/N=C/c2ccc([N+](=O)[O-])cc2)cc1 | 8 | -11 | 0 | 2% | -1.9
COC(=O)C(Cc1ccccc1)NC(=O)CC(C)CC(=O)Nc1ccc(C)cc1 (stereo not drawn) | . | 5 | . | . | 0.1
O=C(CSCc1ccccc1)Nc1nccs1 | -1 | 10 | -20 | -14% | 1.6
CCOc1ccc(C(=O)NC2CCN(CC(=O)NCc3cccs3)CC2)cc1 | -4 | -9 | . | -10% | 2.6
O=C(OCCN1CCCCC1)c1ccc(Cl)cc1 | 6 | 2 | -21 | -7% | -0.9
COc1ccc(-c2nc(NC(C)=O)sc2-c2ccc(OC)cc2)cc1 | -11 | 2 | . | 42% | 2.5
COCCn1c(SCC(=O)Nc2ccccc2OC)nnc1-c1ccco1 | . | -12 | . | . | 0.4
COc1cccc(NC(=O)Cn2c(=O)n(C)c(=O)c3sc4c(c32)COC(C)(C)C4)c1 | . | ? | . | . | 0.6

Overlap with the part before: two compounds; new compounds follow.
SMILES | Arbovirus anti | Mtb bLac sens | YopH inh | Mtb growth | RecA intein inh | others
COCCn1c(SCC(=O)Nc2ccccc2OC)nnc1-c1ccco1 | . | -12 | . | . | 0.4
COc1cccc(NC(=O)Cn2c(=O)n(C)c(=O)c3sc4c(c32)COC(C)(C)C4)c1 | . | ? | . | . | 0.6
COc1ccc(CCNC(=O)c2cc3sccc3n2C)cc1OC | 13 | -8 | -32 | 2% | -0.4
CCCCCCn1c(O)c(C=NC2CCN(Cc3ccccc3)CC2)c(=O)[nH]c1=O | 4 | -1 | -5 | 1% | -2.8
COCCNC(=O)C1CCN(S(=O)(=O)c2c(C)noc2/C=C/c2cccs2)CC1 | . | -1 | . | -2% | -4.4
c1ccc(C2=Nc3cccnc3C(c3ccccc3)=NN2)cc1 | -3 | -8 | . | 0% | .
COCC(C)Nc1ncnc2c1cnn2-c1ccc(Cl)cc1 (stereo not drawn) | -3 | 6 | -38 | 13% | -3.7
O=C(Nc1ccccn1)C1CCN(C(=O)c2ccc(F)cc2)CC1 | . | -5 | . | . | -1.2
COc1ccc(C(=O)N2N=C(c3ccccc3)CC2(O)C(F)(F)F)cc1 (stereo not drawn) | 4 | . | . | 38% | 7.5
CCOC(=O)CSc1nc2c(sc(=S)n2Cc2ccco2)c(=O)n1-c1ccccc1 | 20 | -2 | -29 | 4% | 11
CCOC(=O)c1cccc(NC(=O)CCNS(=O)(=O)c2cc(Br)cnc2N)c1 | . | 0 | . | . | -4.3
COC(=O)c1ccccc1NC(=O)C1COc2ccccc2O1 (stereo not drawn) | 12 | 61 | -9 | 13% | 3.3
COc1ccc(S(=O)(=O)N(C)CC(=O)NCCN2CCOCC2)cc1 | . | -1 | . | . | -3.4
N#C/C(=C\c1ccccc1)c1n[nH]c(Cn2cncn2)n1 | -1 | 4 | -25 | 10% | 0.1
Cc1ccc(C(C(=O)NC(C)(C)C)N(Cc2ccc3c(c2)OCO3)C(=O)c2ccc(CN3CCOCC3)o2)o1 (stereo not drawn) | -2 | 8 | . | -5% | 0.6
C/C(CS(=O)(=O)c1ccccc1)=N\O | 2 | 3 | . | -1% | -3.9
Cc1ccccc1CSc1nnc(Cn2c(=O)sc3ccccc32)n1C | -8 | -4 | -18 | -8% | -1.5 | Arbovirus anti repeat=-9
O=[N+]([O-])c1ccc(CSc2nnc(SCc3ccc(Cl)cc3)s2)cc1 | -4 | -3 | -14 | 24% | -1.8
O=c1ccc(OCCOc2ccccc2)nn1-c1ccccc1 | 1 | -2 | -25 | 10% | 2.8
COc1ccc(C)cc1S(=O)(=O)N(C)CC(=O)NCc1ccccn1 | . | -3 | . | . | -1.0
CC(C)(C)NC(=O)c1cc2c(ccc3ccccc32)oc1=O | . | 8 | . | . | -2.4
Cc1cccc(OCCCCN2CCNCC2)c1 | . | 3 | . | . | -1.8

Part of the list above in order of molar mass, high to low.
SMILES | Arbovirus anti | Mtb bLac sens | YopH inh | Mtb growth | RecA intein inh | others
O=C(Nc1ccccn1)C1CCN(C(=O)c2ccc(F)cc2)CC1 | . | -5 | . | . | -1.2
CC(C)(C)NC(=O)c1cc2c(ccc3ccccc32)oc1=O | . | 8 | . | . | -2.4
Cc1cccc(OCCCCN2CCNCC2)c1 | . | 3 | . | . | -1.8

The results go on:
SMILES | Arbovirus anti | Mtb bLac sens | YopH inh | Mtb growth | RecA intein inh | others
CCn1cc(Br)c(C(=O)NC(=S)Nc2ccc(C(=O)OC)cc2)n1 | 7 | 4 | -23 | 2% | 1.2
COc1ccc(-c2c([C@H]3[C@H]4C=CC[C@@H](C)[C@@H]4C(=O)N3Cc3ccccc3)ccc3ccccc23)cc1OC | . | 1 | . | 16% | 19
CO/C=C/C#CC1(O)CCN(C)CC1 | -3 | -3 | -49 | -2% | -2.5
CCOc1cc(/C=C2/C(=O)ON=C2C)cc(Br)c1O | . | 8 | . | . | -3.0
O=C(Nc1ccc(N=Nc2ccccc2)c(NC(=O)C2CCCO2)c1)C1CCCO1 (stereo not drawn) | 1 | 20 | -4 | 14% | 5.7
COCCn1c(N2CCN(c3ccc(OC)cc3)CC2)nc2c1c(=O)[nH]c(=O)n2C | -2 | -9 | -42 | 6% | -2.0
Nn1c(SCC(=O)Nc2c(F)cc(F)cc2Br)nnc1C1CCCCC1 | . | 5 | . | . | 0.4
O=C(NC1CCCC1)C(c1cccs1)N(C(=O)c1ccco1)c1ccc2c(c1)OCO2 (stereo not drawn) | -12 | -6 | -13 | 2% | 3.7
CCc1ccc2c(c1)C(c1ccc([N+](=O)[O-])cc1)=NNC(c1ccccc1)=N2 | -11 | -4 | -14 | 1% | 0.1
COC(=O)c1ccc(C)c(NC(=O)Cc2coc3cc(OC)ccc23)c1 | 4 | 2 | -39 | 2% | 0.5
CCOc1ccc(N(CC(=O)N2CCN(c3ccccc3F)CC2)S(=O)(=O)c2c(C)noc2C)cc1 | . | -5 | . | . | 1.0
COc1ccc(C(=O)NC2CCN(C(=O)NCc3ccccc3)CC2)cc1 | . | -1 | . | . | -2.1
Cc1c(NC(=O)c2ccccc2N(C)S(=O)(=O)c2ccccc2)c(=O)n(-c2ccccc2)n1C | 5 | -2 | -21 | -2% | 3.1
Cc1ccc(F)cc1CNC(=O)C1CCC(=O)N(CC2CCCCC2)C1 (stereo not drawn) | . | 2 | . | . | 1.5
CCOc1ccc(CN2CCC(n3nccc3NC(=O)c3ccccc3OC)CC2)cc1 | . | ? | . | . | 1.7
COc1ccc(NC(=S)Nc2ccc(OC(F)F)cc2)cn1 | 15 | -13 | . | -3% | 3.5
Cc1ccc(NC(=O)Cn2cnc3c(cnn3C(C)(C)C)c2=O)cc1 | -1 | -28 | 3 | -10% | -3.5
Cc1ccc(S(=O)(=O)Cc2ccc(C(=O)N3CCN(c4ccc(F)cc4)CC3)o2)cc1 | 3 | 5 | -46 | 2% | . | Arbovirus anti repeat=-15
N/C(Cc1ccc(Cl)cc1Cl)=N\OC(=O)Cc1ccc(Cl)cc1 | 3 | 2 | -29 | 1% | 5.0
CC(=O)/C(=C\N(C)C)Sc1ccc(Cl)cc1 | . | -3 | . | 6% | 0.8
Cc1cc(SCC(=O)OC(C)C(=O)N(C)c2ccccc2)nc2ccccc12 (stereo not drawn) | . | -9 | . | . | 3.7
O=C(NCCN1CCOCC1)c1cc2n(n1)C(C(F)(F)F)CC(c1ccc(F)cc1)N2 (stereo not drawn) | -6 | -9 | -45 | -3% | 7.0
CCCCNC(=O)CCCCCNS(=O)(=O)c1ccc(Br)cc1 | 5 | 8 | . | -11% | -0.8
COC(=O)c1ccccc1NC(=O)CSc1n[nH]c(CC(C)C)n1 | 9 | -1 | -86 | 0% | 5.6
Cc1ccsc1C1CC(=O)NC2=C1C(=O)CC(C)(C)C2 (stereo not drawn) | -4 | -7 | 3 | -1% | -1.6
CCOC(=O)C1=C(C)NC2=C(C(=O)C(C(=O)OCC)C(c3cccc(OC)c3)C2)C1c1ccccn1 (stereo not drawn) | -6 | -5 | -11 | 3% | -4.7
Clc1ccc(CN(CC2CCCO2)C(c2cccs2)c2nnnn2C2CCCC2)cc1 (stereo not drawn) | -14 | 12 | 4 | -5% | 3.3
COc1ccccc1CNC(=O)C1CCCN(S(=O)(=O)c2cccc3nsnc23)C1 (stereo not drawn) | . | -2 | . | . | 0.1

Entries listed so far with a CF3 group:
SMILES | Arbovirus anti | Mtb bLac sens | YopH inh | Mtb growth | RecA intein inh | others
CNC(=S)NNC(=O)c1sc2cc(C(F)(F)F)cnc2c1-c1ccccn1 | 13 | -6 | . | -2% | 2.6
COc1ccc(C(=O)N2N=C(c3ccccc3)CC2(O)C(F)(F)F)cc1 (stereo not drawn) | 4 | . | . | 38% | 7.5
O=C(NCCN1CCOCC1)c1cc2n(n1)C(C(F)(F)F)CC(c1ccc(F)cc1)N2 (stereo not drawn) | -6 | -9 | -45 | -3% | 7.0

Not all compounds are listed; rates above refer to the full screens.
